# PABP FP inh = PABP-poly(A) binding inhibition; P11940; PABP-poly(A) RNA binding, fluorescence polarization; inhibition, % at 35 µM; 1% of 290,000 active; AID 2014;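 active = 50% or more with normal probe brightness, or confirmed in later tests; inconclusive = above 50% with abnormal brightness, or retests that disagree; inactive = below 50% or failed in later tests; about a fifth of its hits are not listed in these tables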;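 also: calls also rest on retests at 20 µM and on dose response follow-up; controls were probe without protein and protein plus probe with vehicle; some compounds called inactive have numbers as strong as hits; many hits fall short of the cut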
# eIF4H FP inh = inhibitors of RNA binding by human eIF4H; AID 2012; inhibition, % at 35 µM; 0.94% of 290,000 active; eIF4H fluorescence polarization binding assay;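 active = 50% or more with normal probe brightness, or confirmed in later tests; inconclusive = above 50% with abnormal brightness, or retests that disagree; inactive = below 50% or failed in later tests; about a fifth of its hits are not listed in these tables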;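 also: calls also rest on retests at 20 µM and on dose response follow-up; 0% = protein and probe with vehicle and 100% = probe without protein; strong numbers were not always called active; many hits fall short of the cut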
# CSC inhib = cancer stem cell inhibition; cancer stem cell-like cells viability, luminescence; inhibition, % at 7.5 µM; AID 2717; 1.1% of 300,000 active;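 active = mean at 75% or more and at least half the replicates too; inconclusive = mean and replicates disagree; tested in HMLE shEcad cells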;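 also: 0% = median of negative and 100% = median of positive control wells; the first replicate is given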
# HIV Env fusion = HIV envelope-mediated fusion inhibition. 1.1% of 360,000 active. inhibition, % at 12.3 µM. HeLa-JRFL Env/CEM21 cell fusion, luciferase;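 active = mean replicate inhibition score of at least 50 and every replicate individually at or above 50; inconclusive = only one of the two criteria met; inactive = mean below 50 and not all replicates reaching 50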;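 also: 0% = plate neutral controls and 100% = maraviroc near 300 nM; one replicate is shown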
# MT1-MMP act inh = inhibitors of human MT1-MMP activation; P50281; HT1080 RFP-PRO-GFP cells, GFP/RFP ratio fluorescence, overnight; percent of plate control window, DMSO zero; GFP/RFP ratio change, % at 20 µM; 0.061% of 360,000 active; AID 651647;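 active = GFP/RFP ratio change of at least 30% with cell ATP level not reduced by more than half and red fluorescence within 50% of control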; also: strong numbers were not always called active
#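 Assay system: HT1080 RFP-PRO-GFP cells. Benchmarks: DMSO vehicle wells and RFP-L50D-GFP reporter cell wells. Times: overnight cell settling, then overnight compound exposure, 37 °C, 5% CO2. Compound: 20 µM single dose, 1% DMSO. Read-out basis: GFP/RFP fluorescence ratio.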
# Rce1 inhib = blocks yeast Ras-converting enzyme. Q03530. yeast membranes, quenched prenylated peptide cleavage fluorescence. calls only. 0.27% of 290,000 active. AID 2563;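 active = fall in fluorescence gain of 50% or more versus controls, with final raw signal at or below 3038400; inconclusive = same 50% fall but final raw signal above 3038400; inactive = fall in fluorescence gain under 50%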;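 also: plate controls were neutral control wells for no effect and wells lacking membranes for full effect; tested at 10 µM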
# Target sequence (Q03530 whole entry, looked up): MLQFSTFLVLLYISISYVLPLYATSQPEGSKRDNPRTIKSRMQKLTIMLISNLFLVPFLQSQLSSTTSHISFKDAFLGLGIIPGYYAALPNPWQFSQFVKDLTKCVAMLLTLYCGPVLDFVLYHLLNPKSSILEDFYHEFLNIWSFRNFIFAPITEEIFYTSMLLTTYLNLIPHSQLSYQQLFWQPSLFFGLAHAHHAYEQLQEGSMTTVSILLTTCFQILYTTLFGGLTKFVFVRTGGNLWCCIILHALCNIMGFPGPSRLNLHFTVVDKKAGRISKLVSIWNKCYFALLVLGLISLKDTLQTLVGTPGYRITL
# UUG fidelity = yeast start codon fidelity modulation. S. cerevisiae UUG-firefly luciferase reporter, luminescence/redox ratio. activity score, % at 18.7 µM. 0.13% of 350,000 active. AID 602363;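 active = replicate mean at a twofold rise or more, about +100% in these data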;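 also: firefly luciferase made from a UUG start codon reports start codon fidelity; reporter light over untreated wells divided by growth signal over untreated wells; some hits fall short of that in this replicate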
# MT1-MMP act inh RFP = second read-out of MT1-MMP act inh, no call of its own (marks repeat the call); RFP signal change, %; measured here: RFP expression control read;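 0 = vehicle wells; hits needed this value within 50% of zero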
# * = called active by the depositor; i = inactive; ? = inconclusive; · = no result given; & = joins results of further samples. Outcome played no part in choosing rows (roughly 3% active in at least one column).
SMILES,PABP FP inh,eIF4H FP inh,CSC inhib,HIV Env fusion,MT1-MMP act inh,MT1-MMP act inh RFP,Rce1 inhib,UUG fidelity
Cc1cc(OCc2cc(C(=O)N(C)CC3CCOCC3)no2)cc(C)c1Cl,-1,-3,-2,-5,5,-1,i,-3
Oc1ccc(-c2csc(Nc3cccnc3)n2)cc1,0,-1,19,-70,0,-8,·,-15
O=C(Cn1cncn1)N/N=C/c1cccc(Cl)c1,-5,0,1,-1,-3,2,i,-2
CCOc1cc(C(c2c(C)[nH][nH]c2=O)c2c(C)[nH][nH]c2=O)cc([N+](=O)[O-])c1O,0,-3,-3,-4,5,0,i,-17
CCN(CC)S(=O)(=O)c1ccc(N2CCOCC2)c(NC(=O)COc2ccccc2)c1,-2,8,-2,-4,0,-3,i,-4
COC(=O)c1ccc2[nH]c3c(c2c1)CC(C)CC3 (stereo unspecified),4,-23,-5,-17,-1,2,i,11
CC(C)NC(=O)CC(=O)N/N=C\c1ccccc1C(=O)O,4,-2,3,2,-3,1,i,·
CCOC(=O)c1ccc2c(c1)n(CCCS(=O)(=O)[O-])c(/C=C/c1ccc(Cl)cc1)[n+]2CC,4,-11,-8,-60,1,1,i,-3
O=C(NCCCN1CCOCC1)c1ccc(Br)cc1Br,-6,-5,·,16,·,·,i,·
CC(C)CC(=O)N1CCC(O)(CS(=O)(=O)Cc2ccccc2)CC1,-7,-6,-5,-48,-1,-6,i,-20
Cc1cc(C)cc(OCC(=O)Nc2ccccc2N2CCCCC2)c1,-1,-7,23,67,-12,-8,i,-8
COc1ccc(CNC(=O)Nc2ccc(C)cc2C)cc1,-7,2,-4,-1,-3,-3,i,4
CC(C)(Oc1ccc(F)cc1)C(=O)OCC(=O)c1ccc(S(C)(=O)=O)cc1,·,·,-15,·,0,0,·,-8
COc1ccc(NC(=O)C(Cc2ccccc2)n2cccc2)cc1 (stereo unspecified),-15,-11,-6,28,-6,-3,i,·
Cn1c(=O)[nH]c(=O)c2c1nc(CN1CCN(c3ccccc3F)CC1)n2CCCc1ccccc1,-8,-2,3,·,-1,1,i,4
COC(=O)[C@]1(CC(C)C)N[C@H](c2ccc(-c3ccccc3)cc2)[C@@H]2C(=O)N(C)C(=O)[C@@H]21,·,·,·,10,8,1,·,-12
CN(Cc1nc2ccccc2c(=O)[nH]1)Cc1nc2ccsc2c(=O)[nH]1,2,21,·,-36,-1,0,i,·
Cc1ccc(S(=O)(=O)Nc2nc(C)c(NC(=O)OCCCl)s2)cc1,9,1,1,-29,3,4,i,·
O=C(COc1ccccc1)NCC(c1ccco1)N1CCCCC1 (stereo unspecified),·,·,36,-6,3,-1,i,0
COC(=O)c1ccc(CN2C(=O)NC(Cc3c[nH]c4ccccc34)C2=O)cc1 (stereo unspecified),2,1,·,-22,1,-9,i,10
CCN(C(=O)c1cc2c(=O)[nH]c3ccc(C)cc3c2s1)c1ccc(OC)cc1,8,-2,26,-4,6,-2,i,-13
Cc1ccc(S(=O)(=O)N2CCC(C(=O)Nc3ccccc3N3CCCC3)CC2)cc1,·,·,5,-16,1,-4,i,-1
O=[N+]([O-])c1cc(C(F)(F)F)ccc1NCCCCNS(=O)(=O)c1ccc2ccccc2c1,-1,-8,·,62*,8,0,i,-16
Cn1c(N)c(-c2nc3cccnc3n2C)sc1=S,37,4,-13,-2,1,2,i,·
CCCCCCCC(=O)N/N=C(\C)c1ccc(N)cc1,-7,-14,19,·,·,·,i,·
Cc1cccc(C)c1NC(=O)CN,-4,7,-1,-7,1,4,i,-25
CC(=O)Nc1ccc(NC(=O)CSc2nncn2C)cc1,13,2,-11,-146,-1,1,i,-28
Cc1occc1-c1nnc(SCC(=O)NC2CC2)n1C,7,-2,2,-4,2,5,i,-20
CC1CCCC(NC(=O)COC(=O)c2n[nH]c3ccccc23)C1C (stereo unspecified),·,·,-26,·,-1,-3,·,-8
Cc1ccc(C(=O)Nc2ccc(N3CCN(C(=O)c4ccco4)CC3)cc2)c(Cl)c1,-2,12,13,6,2,-6,i,-13
O=C(COc1ccc(Cl)cc1Cl)OCn1nnc2ccccc2c1=O,4,3,-11,-7,1,2,i,-17
O=C1CSC(c2ccccc2)N1CC(O)c1ccc([N+](=O)[O-])cc1 (stereo unspecified),-10,-5,0,-1,1,-5,i,·
Cc1cc(C)c(OCCNC(=O)c2ccccc2Sc2ccccc2C#N)c(C)c1,5,4,·,15,-20,-19,i,·
CCCC(=O)Nc1c(-c2ccccc2)c(=O)c(C)nn1-c1ccc(C)cc1,-5,4,-9,-26,5,5,i,-13
CCn1cc(S(=O)(=O)Nc2cc(F)ccc2C)cn1,-4,6,14,15,0,1,i,-4
Cc1ccc2c(c1C)NC(C(=O)O)C1CC=CC21 (stereo unspecified),72*,94*,-7,·,-2,2,i,-14&1
Cc1c(Cl)cccc1NC(=O)CCC(=O)NNC(=O)c1ccco1,-5,-7,-9,-80,3,3,i,4
COc1ccccc1NC(=O)c1cc[n+]([O-])cc1,13,0,-14,-8,2,1,i,-20
CCN1CCSc2ccc(C(=O)NCc3ccccc3F)cc21,2,-6,·,3,2,-1,i,1
O=C(Nc1cc(C(F)(F)F)ccc1N1CCOCC1)C1CCCO1 (stereo unspecified),·,·,3,29,-4,5,·,-7
Cc1cc(C(=O)NNc2ccc(C(C)C)cc2)n(C(C)(C)C)n1,3,6,43,-6,4,7,i,·
O=C(CN1C(=O)C2C3C=CC(C3)C2C1=O)N1CCc2ccccc2C1 (stereo unspecified),10,1,11,·,7,4,i,-1
CCOc1ccc(CC(=O)Nc2cccc(-c3ccc4nnc(C)n4n3)c2)cc1,2,-9,-22,-1,20,1,i,0
CCCCS(=O)(=O)CC(COc1ccccc1)OC(=O)c1ccccc1 (stereo unspecified),-1,-2,9,·,-1,0,i,8
COc1ccc2cc(C(=O)NCC3CCCO3)[nH]c2c1 (stereo unspecified),0,-5,-15,5,1,1,i,-13
CCC1CCCCN1CCNC(=O)c1[nH]c(C)c(C(C)=O)c1C (stereo unspecified),4,-7,14,-9,-12,-1,i,-8
CCOc1ccc(S(=O)(=O)N(C)CC(=O)NCc2ccccn2)cc1,-3,3,-4,6,-2,0,i,-17
Cn1c(=O)c2c(ncn2CC(=O)OCC(=O)Nc2cc(Cl)ccc2C#N)n(C)c1=O,·,·,-14,-38,-2,2,·,8
COc1cccc(CC(NC(C)=O)C(=O)NC2CCN(S(=O)(=O)c3ccc(C)cc3)CC2)c1OC (stereo unspecified),-2,0,-16,9,-2,0,i,·
O=C1CC[C@@H](CN(Cc2ccccn2)Cc2nc(Cc3cccc(C(F)(F)F)c3)no2)N1,0,5,-9,3,-1,3,i,·
Fc1cccc(CCN2C(=S)NC[C@@H]2CC2CCCCC2)c1,8,5,7,43,0,-6,i,-32
O=C(Nc1ccc(N2CCN(C(=O)c3ccco3)CC2)cc1)c1ccc(Br)cc1,-4,-15,-1,-1,2,-4,i,-4
O=C1SC(SCc2ccccc2)=N/C1=C\c1ccc(C(=O)O)cc1,5,5,-1,7,-2,1,i,·
O=C(O)Cn1c(O)c(C=Nc2ccccc2)sc1=S,5&11,-8&-14,0&-5,-14&-67,23&33,37&60,i,5
CCOC(=O)c1c(C)[nH]c(C=O)c1Cc1cccc(Cl)c1,0,-8,22,?,-5,-11,i,-12
c1ccc(-c2nc(N3CCCC3)nc3ccccc23)cc1,-2,-18,3,20,1,1,i,·
O=C(NCCCO)NC(=S)c1cccc2ccccc12,-2,-2,·,-9,-2,-1,i,·
CC(C)(C)NC(=O)C1CCC(CNS(=O)(=O)c2cccc3nsnc23)CC1 (stereo unspecified),8,-8,-14,-2,-1,0,i,·
COc1ccccc1C1/C(=C(\O)c2ccc3c(c2)OCCO3)C(=O)C(=O)N1CCCn1ccnc1 (stereo unspecified),1,-3,-4,-8,2,1,i,-25
CCCc1nc2ccc(NC(=O)c3cccs3)cc2c(=O)n1Cc1ccc(Cl)cc1,1,10,12,16,-9,-10,i,-3

# Overlap with the part before: 6 entries, then new ones.
SMILES,PABP FP inh,eIF4H FP inh,CSC inhib,HIV Env fusion,MT1-MMP act inh,MT1-MMP act inh RFP,Rce1 inhib,UUG fidelity
CCOC(=O)c1c(C)[nH]c(C=O)c1Cc1cccc(Cl)c1,0,-8,22,?,-5,-11,i,-12
c1ccc(-c2nc(N3CCCC3)nc3ccccc23)cc1,-2,-18,3,20,1,1,i,·
O=C(NCCCO)NC(=S)c1cccc2ccccc12,-2,-2,·,-9,-2,-1,i,·
CC(C)(C)NC(=O)C1CCC(CNS(=O)(=O)c2cccc3nsnc23)CC1 (stereo unspecified),8,-8,-14,-2,-1,0,i,·
COc1ccccc1C1/C(=C(\O)c2ccc3c(c2)OCCO3)C(=O)C(=O)N1CCCn1ccnc1 (stereo unspecified),1,-3,-4,-8,2,1,i,-25
CCCc1nc2ccc(NC(=O)c3cccs3)cc2c(=O)n1Cc1ccc(Cl)cc1,1,10,12,16,-9,-10,i,-3
CC1(C(=O)NCc2ccccc2Br)CCN1C(=O)C1(c2ccc(Cl)cc2)CC1 (stereo unspecified),·,·,·,9,5,-9,·,-3
COc1cc(/C=N/N2C(C)CCCC2C)cc(OC)c1O (stereo unspecified),-4,-2,6,-24,2,4,i,2
CN1CCN(S(=O)(=O)c2cccc(C(=O)NCCOc3ccccc3)c2)CC1,·,·,-4,6,-1,0,i,-18
Cc1cc(F)ccc1C(O)c1ncc(-c2ccc(Cl)cc2)[nH]1 (stereo unspecified),·,·,·,4,3,-1,·,-18
CCc1ccc(C(=O)NNc2ccc(F)cc2F)cc1,11,4,30,-13,-3,4,i,-5
O=C(NC1CCCCC1)C(c1ccc2ncccc2c1)N(Cc1ccco1)C(=O)c1ccc2c(c1)OCCO2 (stereo unspecified),-4,-3,-14,19,1,0,i,-1
CC1CN(C(=O)CN2C(=O)NC3(CCCC3)C2=O)C(=Nc2cccc(S(=O)(=O)N(C)C)c2)S1 (stereo unspecified),·,·,-19,-61,1,3,i,2
COc1ccc(C(=O)Nc2c(N)nc(SCC(=O)NCC3CCCO3)[nH]c2=O)cc1 (stereo unspecified),9,5,-10,-2,-9,1,i,-8
COc1ccc(CN2CCN(C(C)C(=O)NC(C)c3ccc(F)cc3)CC2)cc1F (stereo unspecified),11,8,-3,6,3,3,i,-9
Cc1onc(-c2ccccc2)c1-c1nnc(COC(=O)c2ccc(F)cc2)o1,·,·,·,4,2,2,·,1
COC(=O)c1ccc2nc(-c3ccc4c(c3)OCO4)cn2c1,-8,-1,2,-7,7,1,i,-62
COc1ccc(CNC(=O)/C=C/c2ccc(OCCCF)cc2)cc1,-7,-7,-10,·,2,-1,i,-16
CC1Sc2ccc(C(=O)OCc3ccccc3Cl)cc2NC1=O (stereo unspecified),·,·,-12,-84,2,-5,i,-3
C=CCn1c(SCC(=O)Nc2c(C)n(C)n(-c3ccccc3)c2=O)nnc1-c1ccncc1,·,·,·,-36,5,3,·,20
CCOc1ccc(C(=O)NCC(=O)N2CCN(c3ccccc3O)CC2)cc1,-5,-5,9,4,5,7,i,-22
CC(C)c1ccc(CN2CCC(Oc3ccc(C(=O)N4CCCC4)cc3)CC2)cc1,-3,-6,2,24,-3,-7,i,-4

# Screening data (PubChem BioAssay)
